# Assay outcomes: PubChem BioAssay, ICCB-Longwood Screening Facility, Harvard Medical School
# AID504770: growth inhibition of E. coli YBA685, primary screen, V. cholerae RctB inhibitors. E. coli YBA685 rctB-dependent plasmid, OD600 growth, 3 h; stronger effect = lower value. z-score (no concentration beside the values). 0.27% of 130,000 active;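 active = z-score under -2 on both plates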;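 also: wells of about 30 µL received 100 nL stock; score is relative to mean and SD of the test wells; the first replicate is given; strong numbers were not always called active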
# CapD inh: Bacillus anthracis CapD inhibitors, primary screen, biochemical, fluorescence intensity. 0.23% of 140,000 active. z-score (test concentration not listed). CapD gamma-glutamyltranspeptidase (Bacillus anthracis Ames Ancestor). purified CapD enzyme, fluorescence intensity read-out; stronger effect = lower value; some hits fall short of the stated cut;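 active = z-score under -4 in either of two replicates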;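 also: stock transfer was 100 nL into about 40 µL; score is relative to mean and spread of the plate; one replicate is shown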
# * marks the source's active call; other numbers are inactive results; x = not tested or not shown.
# Order of results: CapD inh	AID504770
> COc1cc(/C=C\C(=O)Nc2c3c(nn2-c2ccc([N+](=O)[O-])cc2)CSC3)cc(OC)c1OC
  -0.67	x
> O=C(CCCN1C(=O)CSc2ncccc21)NCc1ccccc1
  1.5	-0.9
> O=C(CCCOc1ccc(Cl)cc1Cl)Nc1nccs1
  0.2	0.45
> COc1ccccc1NC(=O)c1c(NCc2sccc2C)sc2c1CCCC2
  0.34	-0.55
> Cc1cc(-c2nn(C)c(=O)c3ccccc23)cc(C)c1OCC(=O)NN
  -0.15	-0.55
> COC(=O)c1ccc(OC)c(Cn2c(=O)n(C)c(=O)c3ccccc32)c1
  x	-0.25
> CCOC(=O)C1=C(C)NC2=C(C(=O)C(C(=O)OCC)C(c3cccc(OC)c3)C2)C1c1ccc(Cl)cc1 (stereo unspecified)
  12	x
> CN1CCC(OC(=O)c2cc3cc(Cl)cc(Cl)c3oc2=O)CC1
  x	-0.15
> CCOC(=O)c1nnn(-c2nc(OC)nc(N3CCOCC3)n2)c1C
  0.13	x
> COc1ccc(-c2cc(C(=O)NN)n(CCC#N)n2)cc1
  x	1.1
> O=C(NCCCn1ccnc1)c1ccc(Br)c(S(=O)(=O)N2CCOCC2)c1
  x	-0.4
> CNc1cc(F)nc(NC)n1
  0.18	x
> O=C1N(CN2CCOCC2)c2ccccc2C12OCCO2
  0.08	-1.2
> CCN=C1S/C(=C\c2cc3c(cc2Br)OCO3)C(=O)N1CC
  0.21	x
> COc1ccc(-c2noc(N3CCN(c4cccc(C)c4C)CC3)n2)cc1
  0.12	-0.45
> O=C(CSc1ncccc1C(=O)Nc1ccnn1Cc1cccnc1)Nc1ccc2c(c1)OCO2
  x	1.4
> CN1CCN(c2ccccc2NC(=O)C2CCC2)CC1
  x	0.8
> CC(OC(=O)c1cn(Cc2ccccc2)nc1-c1cccs1)C(N)=O (stereo unspecified)
  x	-0.7
> CN1C(=O)c2ccccc2C(C(=O)NCCCN2CCCCC2)C1c1cccs1 (stereo unspecified)
  -1.1	0.15
> CC(C)(C(=O)O)C(C)(C)C(=O)O
  0.15	x
> CCOC(=O)Nc1ccc2c(CSc3ncccn3)cc(=O)oc2c1
  x	-0.05
> Cc1onc(-c2ccccc2)c1C(=O)Nc1ccc(N2CCOCC2)cc1
  -0.61	0.3
> COc1ccc(CCNC(=O)c2ccc(NC(=O)CC#N)cc2)cc1OC
  x	-1.1
> O=C(c1ccc2c(=O)n(Cc3ccco3)c(=S)[nH]c2c1)N1CCN(Cc2ccc3c(c2)OCO3)CC1
  -0.39	x
> O=C1CCCN1CCCNc1ncnc2sccc12
  x	-0.55
> CN(C)S(=O)(=O)Nc1ccc(C(=O)O)cc1
  -0.21	0.15
> Cc1nc(CC(=O)NN=C2C3CC4CC(C3)CC2C4)cs1
  x	-0.1
> Cc1ccc(Cl)cc1N1C(=O)C2C(C1=O)C1(C)c3ccccc3C2(C)c2ccccc21 (stereo unspecified)
  0.025	x
> CC(NC(=O)C(C)(C)C)c1nc2ccccc2n1C (stereo unspecified)
  -0.2	0.15
> C=CCSc1nnc2c(n1)OC(c1cccnc1)Nc1ccccc1-2 (stereo unspecified)
  -0.42	0.05
> Cc1cccc(C)c1OCC(=O)NCc1nnc(SCC(=O)NC2CCCCC2C)n1C (stereo unspecified)
  0.65	0.85
> COc1cccc(/C=C2\SC(N)=NC2=O)c1OCc1ccc(Cl)cc1Cl
  0.68	x
> NS(=O)(=O)/C=C/c1ccccc1
  0.81	-0.25
> Cc1ccc(-n2cnc3cc(C(=O)NCC4CCCO4)ccc32)cc1Cl (stereo unspecified)
  0.015	-0.9
> Cc1ccc(C(=O)c2coc3ccc(O)c(CN(C)C)c23)cc1
  -0.32	-1
> O=C(Nc1cccnc1)c1ccc(CSc2ccc(Cl)cc2)o1
  0.005	-1.2
> COc1c(I)cc(I)cc1C1Nc2ccc3ccccc3c2C2=C1C(=O)CC(C)(C)C2 (stereo unspecified)
  0.6	x
> CCSc1nnc2n(CCc3ccccc3)c(=O)c3c(n12)-c1ccccc1CC31CCCCC1
  -0.05	x
> O=c1cc(-c2ccc(-c3ccccc3)cc2)[nH][nH]1
  0.79	0.1
> CCN1CCCC1CNC(=S)NCc1ccccc1 (stereo unspecified)
  x	-0.75
> COc1ccc(OCC(F)(F)F)c(C(=O)Nc2ccc(Cl)cc2)c1
  0.61	x
> O=C(N/N=C/c1ccnc2ccccc12)c1c(F)cccc1F
  3.8	x
> O=C(CN1C(=O)/C(=C\c2cccc(Cl)c2)Oc2ccccc21)NCCN1CCCC1
  5.8	0.55
> N#Cc1c(Cl)cccc1Oc1ccc(S(=O)(=O)NCc2ccccc2C(F)(F)F)cc1
  0.2	x
> Fc1ccc(C2Nc3c(Cl)cc(Cl)cc3C3C=CCC32)cc1 (stereo unspecified)
  -0.14	x
> COC(=O)c1ccc(-n2c(C)cc(C(=O)CSc3nncs3)c2C)cc1
  x	-2.2
> COc1ccc(C2=NN(C(=O)CSc3nnc(CNC(=O)c4cccc(C)c4)n3C)C(c3ccc(F)cc3)C2)cc1 (stereo unspecified)
  1.8	x
> CCOC(=O)c1cc2cnccc2nc1-c1ccccn1
  -0.59	x
> CCc1ccc(Sc2cc(C(=O)NCC3CCCO3)c3ccccc3n2)cc1 (stereo unspecified)
  23	-0.65
> CC(CCc1ccccc1)NC(=O)c1n[nH]c2c1CCCC2 (stereo unspecified)
  0.28	0.05
> Cc1cc2nc(C(NC(=O)c3ccccc3Cl)C(C)C)[nH]c2cc1C (stereo unspecified)
  -0.53	x
> N#Cc1c(/N=C/c2c[nH]c3ccccc23)oc(-c2ccccc2)c1-c1ccccc1
  x	-1.3
> O=C(C/C=N/OCc1c(Cl)cccc1Cl)c1ccc(Cl)cc1
  -0.78	x
> CN(C(=O)C1CCC(CNS(=O)(=O)c2cccc3nsnc23)CC1)C1CCCCC1 (stereo unspecified)
  -0.67	-1.2
> COc1ccc(OCC(=O)N2c3ccccc3Sc3ccccc32)cc1
  5.6	-0.1
> Brc1ccc(-c2nc3ccccc3nc2-c2ccccc2)cc1
  -0.09	x
> COc1ccc(N=Cc2oc(O)c3ccccc23)cc1
  0.11	-0.15
> NCc1cn[nH]c1-c1ccccc1
  0.33	0.25
> N=c1scc(-c2ccc(Cl)cc2)n1-c1ccccc1N1CCOCC1
  0.025	-1.2
> CCN1CCN(C(=O)CC#N)CC1
  -0.6	-1.7

# The results go on.
# Order of results: CapD inh	AID504770
> N=c1n(CCN2CCCCC2)c2ccccc2n1CC(O)c1cccs1 (stereo unspecified)
  0.23	0.55
> COC(=O)C(NC(=O)c1cn(C)nc1C(F)(F)F)c1ccccc1 (stereo unspecified)
  -0.42	1.2
> Fc1ccccc1N1CCN(Cn2nc(-c3ccco3)oc2=S)CC1
  x	1.9
> O=C1c2ccccc2S(=O)(=O)NN1CN1C(=O)c2ccccc2C1=O
  x	-0.4
> CCN(CC)C(=O)CSc1ncnc2c1nnn2Cc1ccc(F)cc1
  1.7	1.9
> COc1cc(CNC2C3CC4CC(C3)CC2C4)ccc1OCc1cccs1 (stereo unspecified)
  -0.79	0.35
> O=C1CCCCC1C1(O)C(=O)Nc2ccc(Br)cc21 (stereo unspecified)
  -0.04	x
> COC(=O)CSc1nc2ccc(C(C)C)cc2cc1C#N
  x	0.25
> O=C(O)CCc1nc2ccc(C(=O)O)cc2[nH]1
  16	-0.2
> CC(CC(=O)OCc1ccccc1)n1ccnc1 (stereo unspecified)
  x	-0.95
> O=S(=O)(Nc1ccc(-c2cnco2)cc1)c1ccccc1
  0.79	1.9
> Cc1ccc(S(=O)(=O)N2C(=O)CCC2c2nc(-c3cccnc3)no2)cc1 (stereo unspecified)
  0.54	-1.1
> CCOC(=O)C1=C(c2ccccc2)N=C2SCC(=O)N2C1c1ccccc1 (stereo unspecified)
  -0.55	x
> CNC(=O)NC(=O)CSc1nnc(SCC(=O)NC(=O)NC)s1
  x	-3.4
> CCc1ccc(NC(=O)Cn2cc3c(n2)CCCC3)cc1
  -0.32	-0.65
> CCN=C1S/C(=C/c2ccc(-c3ccc(F)cc3)o2)C(=O)N1CC
  2.2	0.65
> CCOC(=O)C(CC)Sc1ccc2nnc(CCNC(=O)c3ccc(F)cc3)n2n1 (stereo unspecified)
  x	-0.45
> CCn1c(CS(=O)(=O)c2cc(C)ccc2C)nc2cc(C(=O)O)ccc21
  x	-0.55
> CSc1cccc(NC(=O)COCc2cc(-c3ccc4c(c3)OCO4)on2)c1
  0.3	-0.6
> CN1c2ccccc2Sc2cc(N)ccc21
  -0.2	-0.1
> O=C(O)c1cc([N+](=O)[O-])ccc1NCCCc1ccccc1
  -0.64	x
> CC/C(Cc1ccccc1)=N\NC(=O)c1cc(C)oc1C
  x	-1
> COc1ccc(NC(=O)NC(C)C2CC3CCC2C3)cc1 (stereo unspecified)
  -0.85	0.05
> O=C(CN1C(=O)CC2(CCCC2)C1=O)NC1CCS(=O)(=O)C1 (stereo unspecified)
  x	-0.1
> Ic1cccc(-c2nc(-c3ccccc3)no2)c1
  0.04	-0.45
> O=C(Nc1cc(Cl)ccc1Oc1ccc2ccccc2c1Cl)c1cc(I)cc(I)c1O
  -0.79	x
> CC(C)(C)c1ccc(S(=O)c2sc3nc4c(cc3c2N)CCCC4)cc1 (stereo unspecified)
  -0.24	0.15
> c1csc(CNc2ncnc3sccc23)c1
  x	-0.95
> CCn1c2ccccc2c2nnc(SCC(=O)NC3CCCC3)nc21
  x	-0.4
> COc1ccc(NC(=O)CCn2c(=O)c3cccn3c3ccccc32)cc1
  -0.45	-0.6
> O=C(O)CNC(=O)c1cc(=O)[nH]c(=O)[nH]1
  0	-0.05
> CCOC(=O)C1=C(CSc2nc(CC)c(C)cc2C#N)OC(N)=C(C#N)C1c1ccc(OC)cc1 (stereo unspecified)
  2.5	x
> COc1cc(-c2nc3ccccc3c(=O)n2NC(=O)c2ccc([N+](=O)[O-])c(C)c2)cc(OC)c1OC
  -0.16	x
> COc1ccc(N2C(=O)/C(=C/c3cc(OC)c(OC)c(OC)c3)C(=O)NC2=S)cc1
  0.3	x
> CCN(CC)S(=O)(=O)c1ccc2nc(CSc3nnnn3-c3ccc(O)cc3)[nH]c2c1
  x	0.8
> N#C/C(=C\Nc1ccccn1)S(=O)(=O)Cc1ccco1
  -0.73	-1.1
> O=C1CC(c2ccc(F)c(Br)c2)c2ccc3ccccc3c2N1 (stereo unspecified)
  -0.48	x
> O=C1CSC(=O)N1C/C=C/CN1C(=O)CSC1=O
  0.23	0.6
> CC(C)CC(=O)Nc1cc2nn(-c3ccccc3)nc2cc1Cl
  17	1.1
> Nc1nc(OCC(F)(F)F)cc(-c2ccccc2)n1
  0.4	-0.35
> COC(=O)c1cc2ccc3c(c2oc1=O)CN(Cc1ccco1)CO3
  80	-0.05
> Cc1ccc(S(=O)(=O)CCN2C=CC(C(F)(F)F)=NCC2)cc1
  -3.7	-0.7
> O=C(Nc1nccs1)C1CC1(c1ccccc1)c1ccccc1 (stereo unspecified)
  -0.64	0.3
> O=c1[nH]nc(-c2cccs2)o1
  x	-0.45
> O=S(=O)(c1cccc(CSc2nc3ccccc3s2)c1)N1CCOCC1
  x	0
> N#CC(C#N)=NNc1ccc(F)cc1F
  -3.6	x
> Oc1ccc(Br)cc1/C=N/n1cnnc1
  -0.79	-1.1
> Cc1ccc(CNC(=O)C(Cc2ccccc2)n2cccc2)cc1 (stereo unspecified)
  -0.73	-0.65
> COc1ccc(C(=O)NCCN=C2NS(=O)(=O)c3ccccc32)cc1
  x	-0.4
> O=C(NCc1cc(F)cc2c1OCOC2)c1ccc(-c2ccccn2)s1
  9.5	-2.4
> O=C(Oc1ccc(-c2nnco2)cc1)C1CC(=O)N(c2ccc3c(c2)OCCO3)C1 (stereo unspecified)
  x	-0.75
> Cc1nc2ccccc2n1CC(O)c1ccccc1 (stereo unspecified)
  x	-0.65
> O=C(O)c1ccc(-n2cc(-c3ccnc4ccccc34)cn2)cc1
  0.53	x
> Cc1ccc(NC(=O)CN2C(=O)/C(=C\c3ccccc3)SC2=S)cc1
  -1.1	1.5
> O=C(Nc1ccccc1)c1ccc(S(=O)(=O)N2CCOCC2)cc1
  -0.78	2.2
> Cc1cccc(C(=O)NC2CCCCC2C)c1 (stereo unspecified)
  0.24	-0.6
> CCC(=O)c1ccc(OC(=O)c2c(C)noc2C)cc1
  x	-0.1
> CCNS(=O)(=O)c1cc2c(c([N+](=O)[O-])c1)-c1c(cc(S(=O)(=O)NCC)cc1[N+](=O)[O-])C2=O
  0.74	x
> N#C/C(=C/c1cccc(Oc2ncccn2)c1)c1ccccc1F
  -0.11	-0.95
> Cc1cccn(Cc2c(Cl)cccc2Cl)c1=O
  0.65	0.05
> CCN(CC)c1ccc2cc(C(N)=O)c(=N)oc2c1
  -2.2	0.8
